High-throughput results (PubChem)
HSD17B inh = blocks hydroxysteroid 17-beta dehydrogenase activity. Q99714. recombinant HSD17B10, NADH fluorescence kinetic; many of its hits are not listed in these tables. Potency, µM (series often up to 57.1 µM), for the others: top-dose activity change, negative = inhibition, actives largely listed as inhibitors. hit rate 7.6% among 75,000. AID 893; active = well fitted inhibition curve with a large enough effect; inconclusive = small, poorly fitted or top-dose-only effect; inactive = no such curve, though single readings can be large or run the other way;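 note: the protocol describes HADH2 (HSD17B10) and not the HSD17B4 of the title; nearly all actives have a fitted effect of over 70% in size; most hits overshoot -100% by far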
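20 nM HADH2, pH 9.0 Tris/Tween; cpd preinc 15 min RT; start w/ 1 mM NAD+ + 90 uM b-hydroxybutyryl-CoA; kinetic fluor ex360/em450 q30s x 4 min; delta last-first.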
An asterisk follows results filed as active; u = inconclusive; & = joins results of further samples; [ ] = another dose, or the depositor's remark. % is set by controls: 0 for no effect and ±100 for the full control effect; potency is the fitted concentration of half-maximal effect. A portion of the library. The share of hits here may be higher or lower than overall.

Compound	HSD17B inh
CCOC(=O)C1CCCN(S(=O)(=O)c2ccc(C)cc2)C1 (stereo not drawn)	-11%
Cc1ccc(-n2nnnc2SCC(=O)Nc2cccc(NC(=O)c3ccco3)c2)cc1C	13%
COc1ccc(-n2c(C)cc(=O)c3c2CC(C)(C)CC3=O)cc1	6%
O=C(O)C12CC3(C(=O)O)CC(C(=O)O)(CC(C(=O)O)(C1)C3=O)C2=O	0%[11.4 µM]
Cn1c(C(=O)N2CCN(C(=O)c3ccco3)CC2)cc2c(=O)n(C)c3ccccc3c21	-14%
COC(=O)Cn1c(CN(Cc2ccccc2)Cc2ccccc2)nc2c1c(=O)[nH]c(=O)n2C	-6%
c1cncc(CNc2nc(-c3ccoc3)nc3ccccc23)c1	-13%
O=C1CCCCCN1CSc1nc2ccccc2s1	-8%
Cn1nnnc1SCc1nnc(-c2ccc(Cl)cc2)o1	12%
CCOC(=O)C1CCCN(S(=O)(=O)c2cc(OCC(N)=O)c(C)cc2Cl)C1 (stereo not drawn)	7%
Cn1c(O)c(C=NCCCCCC(=O)O)c(=O)n(C)c1=O	5%
CC1CN(Cc2nc3c(c(=O)n(C)c(=O)n3C)n2CC(O)CO)CC(C)O1 (stereo not drawn)	-3%
CCOC(=O)Cc1csc(-n2sc3ccccc3c2=O)n1	5µM*
CCN(CC(=O)Nc1ccc(OC)c(OC)c1)S(=O)(=O)c1ccc(C)cc1	2%
O=C(NC1CCCC1)C(c1ccc(N2CCOCC2)cc1)N(Cc1ccccc1)C(=O)c1ccco1 (stereo not drawn)	-1%
Cc1cccc(-n2c(SCC(=O)NCc3ccco3)nc3ccccc3c2=O)c1	3%
COc1ccc(N(CC(=O)Nc2ccc3c(c2)OCO3)S(=O)(=O)c2c(C)nn(C)c2C)cc1	1%
O=c1[nH]c2cc3c(cc2cc1C(c1nnnn1Cc1ccccc1)N1CCCc2ccccc21)OCO3 (stereo not drawn)	145%[activator]
CCOC(=O)N1CCC(NC(=O)c2cnn3cccnc23)CC1	u
O=C(N1CCCCCC1)N1CCN(S(=O)(=O)N2CCOCC2)CC1	-1%
CC1CCCc2sc3nc(NCc4ccco4)n4ncnc4c3c21 (stereo not drawn)	u
Cc1cccc(C)c1NC(=O)C1(N(Cc2ccco2)C(=O)CC2NC(=O)NC2=O)CCCCC1 (stereo not drawn)	5%
COc1ccccc1CNC(=O)C1COc2ccccc2O1 (stereo not drawn)	4%
FC(F)(F)c1ccccc1-c1cncnc1-n1ccnc1	15%
CC(C)C(NC(=O)c1ccccc1)C(=O)NCc1ccccn1 (stereo not drawn)	7%
O=S(=O)(O)C1CCNCC1	3%&-4%
CC(=O)Nc1ccc(C(=O)CS(=O)(=O)c2ccc(C)cc2)cc1	-1%
COc1ccc(OC)c(NC(=O)CCN2CC(C)OC(C)C2)c1 (stereo not drawn)	2%
Cn1c(C2CCCN2C(=O)OC(C)(C)C)n[nH]c1=S (stereo not drawn)	5%
CCOC(=O)C1CCN(c2cc(=O)n(-c3ccccc3Cl)c(=O)[nH]2)CC1	5%
CCn1c(Cc2ccccc2)nnc1SCC(=O)NC(C)(C)C	3%
CC(C(=O)N1CC2(C)CC1CC(C)(C)C2)N1C(=O)c2ccccc2C1=O (stereo not drawn)	-1%
O=C(O)c1ccc(CSc2nnnn2C2CCCCC2)cc1	2%
Cc1cc(C)nc(SCC(=O)NC2=NC(=O)C(C)S2)n1 (stereo not drawn)	0%
c1cncc(-c2nnc(SCCSc3nnc(-c4cccnc4)o3)o2)c1	-9%
Cc1nn(Cc2ccccc2)c(C)c1CCC(=O)O	7%
CCOC(=O)C(C)n1cnc2c(cnn2-c2ccc(Cl)cc2)c1=O (stereo not drawn)	-7%
CCCC(=O)N(c1ccc(OC)cc1)C1C=CS(=O)(=O)C1 (stereo not drawn)	2%
CCCCNC(=O)C1CC(=O)N(CCC(C)C)C1 (stereo not drawn)	10%
COc1ccccc1C1=NOC(Cn2c(=O)c3c(ncn3C)n(C)c2=O)C1 (stereo not drawn)	3%
COc1ccc(C2CC(=O)N3CN(c4ccc(C)c(Cl)c4)CSC3=C2C#N)cc1 (stereo not drawn)	32µM*
NS(=O)(=O)c1ccc(NC(=O)CCc2ccccc2)cc1	7%
O=C1CC(C(=O)Nc2nccs2)C(c2ccccc2)O1 (stereo not drawn)	-5%
COCCN(C(C)=O)c1nnc(-c2ccccn2)s1	157%[activator]
Cc1nnc(SCCC(=O)Nc2nc(-c3ccccc3)ns2)s1	-4%
Cc1cc(O)c(C(C)C)cc1NC(=O)Nc1cccc2ccccc12	5%[11.4 µM]
COc1ccc2c(c1)c(=O)oc1cc(OCC(=O)NC3CC3)ccc12	13µM*
S=C(NC1CCCCC1)N1CCC([C@H]2C=NC=N2)CC1	4%[25.6 µM]
COc1ccc(Nc2nc(N)nc(CN3CCOCC3)n2)cc1	14%
COc1ccc(CC(=O)c2ccc(O)cc2O)cc1	0%

6 compounds out of the list, arranged by heavy-atom count, ascending.
Compound	HSD17B inh
CCCCNC(=O)C1CC(=O)N(CCC(C)C)C1 (stereo not drawn)	10%
Cn1c(C2CCCN2C(=O)OC(C)(C)C)n[nH]c1=S (stereo not drawn)	5%
O=C(O)c1ccc(CSc2nnnn2C2CCCCC2)cc1	2%
COc1ccc(Nc2nc(N)nc(CN3CCOCC3)n2)cc1	14%
CCOC(=O)C1CCN(c2cc(=O)n(-c3ccccc3Cl)c(=O)[nH]2)CC1	5%
COc1ccc(C2CC(=O)N3CN(c4ccc(C)c(Cl)c4)CSC3=C2C#N)cc1 (stereo not drawn)	32µM*

Exported with each value named: part of the list above
> COc1ccc(OC)c(NC(=O)CCN2CC(C)OC(C)C2)c1 (stereo not drawn)
  HSD17B inh: 2%
> COc1ccccc1C1=NOC(Cn2c(=O)c3c(ncn3C)n(C)c2=O)C1 (stereo not drawn)
  HSD17B inh: 3%

Later entries:
Compound	HSD17B inh
Cc1ccc(OCCN2CCN(C(=O)CCC(=O)Nc3nnc(C(C)C)s3)CC2)cc1	-1%
CCN1C(=O)CSc2ccc(C(=O)NCc3ccco3)cc21	0%
CC1=C(C(=O)OC2CCCCCC2)C(c2ccc(C)o2)C2=C(CCCC2=O)N1 (stereo not drawn)	16µM*
CSc1ccc(Cl)c(C(=O)OCC(=O)NCc2ccco2)c1	25µM*
O=C(CN1CCN(c2ccc(F)cc2)CC1)N1CCOCC1	1%
CCN(CC)c1nc(N)nc(NS(=O)(=O)c2ccc(Cl)cc2)n1	1%
CCOCCCNC(=O)Cn1cc2c(n1)CCCC2	1%
Cc1nc(NCC2CCCO2)nc2c1C(=O)CC(C)C2 (stereo not drawn)	-1%
CC(C)CC(=O)N[C@H](C(=O)N[C@H](C(=O)N[C@@H](CC(C)C)[C@H](O)CC(=O)N[C@@H](C)C(=O)N[C@@H](CC(C)C)[C@H](O)CC(=O)O)C(C)C)C(C)C	3%[25.6 µM]
NC(=O)c1ccsc1NC(=O)CSc1ccccc1F	u
O=C(NCc1cccnc1)c1nnc(Cc2ccc(F)cc2)o1	6%
CCOC(=O)c1sc(NC(=O)CSc2nnnn2-c2ccccc2)nc1C	-12%
CC1CCCCN1S(=O)(=O)c1ccc(C(=O)Nc2nnc(-c3cccs3)o2)cc1 (stereo not drawn)	-7%
Nn1cc(-c2ccccc2)nc1SCC(=O)N1CCN(S(=O)(=O)c2ccc(Cl)cc2)CC1	-4%
CC(C)NS(=O)(=O)c1cccc2nsnc12	0%
COc1ccccc1NC(=O)c1[nH]c(C)c(C(C)=O)c1C	5%
Cc1ccccc1-c1ccc2ncnc(N3CCOCC3)c2c1	5%
Cc1occc1-c1nnc(SCC(=O)N2CCN(c3ccccc3F)CC2)n1C	4%
CNS(=O)(=O)c1cc(O)c2c(S(=O)(=O)NC)cccc2c1	8%
CC1(C)CC(n2c(NCCO)nc3c(c2=O)C2(CCCC2)Cc2ccccc2-3)CCO1 (stereo not drawn)	u
O=C1C(Cl)=C(N2CCCCCC2)C(=O)N1c1ccccc1	-6%
Cc1ccc(-c2cc(C(=O)NCc3ccc4c(c3)OCO4)no2)cc1	7%
COc1ccc(S(=O)(=O)N(C)CC(=O)Nc2ccccc2SC)cc1Cl	-12%
COc1ccc2cc(C(c3nnnn3C(C)(C)C)N3CCSCC3)c(=O)[nH]c2c1 (stereo not drawn)	-4%
C[C@@H](NC(=O)C1(N)CCCC1)C(=O)O	7%[11.4 µM]
CNC(=O)CN(c1ccc(OC)cc1)S(=O)(=O)c1ccc(F)cc1	3%
C=CCn1c(C)cc(C(=O)CSc2nc3ccccc3o2)c1C	-28%
C=C(C)C1CC=C(CO)CC1 (stereo not drawn)	2%
CN(Cc1ccco1)c1cc(-c2cccc(NS(C)(=O)=O)c2)ncn1	6%
Cc1ccc(NC(=O)Cn2c(=O)n(Cc3ccco3)c(=N)c3c4c(sc32)COC(C)(C)C4)cc1	-29%
Cc1ccc(C)c(NC2=CC(=O)CC(C)(C)C2)c1C#N	2%
Cc1ccc(S(=O)(=O)NC2CCCCC2)cc1	2%
COc1ccc(Cn2c(=O)oc3ccc(C)cc32)cc1OC	-7%
CCn1c(COc2ccccc2C)nnc1SCC(=O)N1CCC(C)CC1	-9%
CC12CCC(C(=O)N(c3ccccn3)c3ccccn3)(OC1=O)C2(C)C (stereo not drawn)	12%
Cc1cc(N(C)Cc2ccccc2)nc(-c2ccccc2)n1	0%
COC(=O)C1C(=O)C2=C(CC1C)NC(=O)CC2c1cccc(C)c1 (stereo not drawn)	0%
Cc1cccc(C)c1NC(=O)N1CCN(C2CCCCC2)CC1	3%
CCc1ccc(-c2nnn(Cc3nc4ccccc4s3)n2)cc1	-3%
COc1cccc(-c2nc(CS(=O)CC(=O)NC3CCCC3)c(C)o2)c1 (stereo not drawn)	-3%
CCC(CC)C(=O)NCCc1cc2c(C)ccc(C)c2[nH]c1=O	-11%
O=C(O)CSCc1cccc2ccccc12	6%[11.4 µM]
CCc1nc2oc3ccccc3c(=O)c2c(=O)n1Cc1ccc(OC)cc1	-6%
COc1ccccc1N1CCN(CCN2C(=O)CC3(CCCC3)CC2=O)CC1	16%&6%
Cc1onc(-c2ccccc2)c1C(=O)Nc1nnc(-c2ccncc2)s1	25µM*
Cc1c(-c2nc(N)nc(Nc3ccccc3F)n2)oc2ccccc12	u
COCC(C)NS(=O)(=O)c1ccc(OC)cc1 (stereo not drawn)	10%
Cn1c(=O)c2ncn(CC(=O)NCCOc3ccc(C(C)(C)C)cc3)c2n(C)c1=O	-9%
Nn1c(SC/C=C/c2ccccc2)nnc1-c1ccco1	-1%
CCCOC(=O)C1C2C=CC3(CN(c4ccc(Cl)c(F)c4)C(=O)C13)O2 (stereo not drawn)	4%

(next part)
Molecule | HSD17B inh
NC(=O)CSc1nnc(-c2ccoc2)o1 | 8%
COc1ccc(F)cc1S(=O)(=O)n1cc(C)nc1-c1ccccc1 | u
Cc1ccc(OCCCN(C)C)c(Br)c1 | 5%
Cc1ccc(Cn2c3ccccc3c3cn[nH]c(=O)c32)cc1 | -3%
O=[N+]([O-])c1cc(Cc2cc([N+](=O)[O-])c3cccnc3c2O)c(O)c2ncccc12 | u
COC(=O)CSc1ncc(C#N)c(N)n1 | -13%
COc1ccc(C(=O)N2CCCc3ccccc32)cc1 | 9%
CCC(c1nnnn1C(C)C)N1CCN(C2CCCC2)CC1 (stereo not drawn) | 3%
CC(CP(=O)(O)O)NC(=O)Cc1ccccc1 (stereo not drawn) | -8%
O=C(O)c1cc(C(=O)O)c(-c2ccccc2)c(C(=O)O)c1 | -2%
CCc1nc(N2CCC(C)CC2)c2oc3ccccc3c2n1 | 382%[activator]
CC1CCN(S(=O)(=O)Cc2ccccc2Cl)CC1 | 4%
O=C(O)CSc1ccn(Cc2ccccc2)c1 | 0%[11.4 µM]
Clc1ccc(CSc2ncn[nH]2)cc1 | 2%
COc1cccc(OCC(=O)Nc2ccccc2NC(C)=O)c1 | 10%
CCCCN(C)C(=O)C1CCC(=O)N(c2cc(OC)c(OC)c(OC)c2)C1c1ccc(OC)cc1 (stereo not drawn) | 13%
CCOC(=O)N1CCN(S(=O)(=O)c2ccc(F)cc2)CC1 | -2%
Cc1c(C(=O)COC(C)(C)C)[nH]c2ccccc12 | u
O=C(Nc1cccc(F)c1)N1CCCC2(CCN(C(=O)c3cccc(F)c3)CC2)C1 | 7%
COc1ccccc1CNC(=O)CCNC(=O)Cn1ccc2ccccc2c1=O | -14%
Cc1ccc2c(c1)c1c(n2CC2COC(C)(C)O2)C(=O)CCC1 (stereo not drawn) | 25µM*
O=C(C1CCN(C2CC(=O)N(c3cccc(Cl)c3)C2=O)CC1)N1CCCC1 (stereo not drawn) | -3%
COCCN1Cc2cccc(C(=O)NCc3ccccc3OC)c2C1=O | 6%
Cc1ccnc(N2CCC(C(=O)NC3CCCCCC3)CC2)n1 | u
O=C(N/N=C1/C[C@@H](O)[C@@H](O)[C@@H]2[C@@H]3C(=O)N(Cc4ccccc4)C(=O)[C@H]3CC[C@H]12)OCc1ccccc1 | 4%[11.4 µM]
O=C(NC12CC3CC(CC(C3)C1)C2)c1ccc(=O)oc1 | 12%
Cc1cccc(NC(=O)COc2ccc(Br)cc2C)n1 | 5%
Cc1cccn2c(=O)c3cc(C(=O)N(C)C)n(C)c3nc12 | 25µM*
c1ccc2occc2c1 | 2%
CC(C)(C)NC(=O)c1cnn2c1NC(c1ccc(F)cc1)CC2C(F)(F)F (stereo not drawn) | 1%
Cn1c(CCCNC(=O)c2cccs2)nc2ccccc21 | 4%

As entered above:
`Cn1c(CCCNC(=O)c2cccs2)nc2ccccc21` | HSD17B inh: 4%
`CC1CCN(S(=O)(=O)Cc2ccccc2Cl)CC1` | HSD17B inh: 4%
`COc1ccccc1CNC(=O)C1COc2ccccc2O1` (stereo not drawn) | HSD17B inh: 4%
`Cc1cccc(NC(=O)COc2ccc(Br)cc2C)n1` | HSD17B inh: 5%
`Cc1cccc(C)c1NC(=O)C1(N(Cc2ccco2)C(=O)CC2NC(=O)NC2=O)CCCCC1` (stereo not drawn) | HSD17B inh: 5%
